Compound activity: PubChem BioAssay, National Center for Advancing Translational Sciences (NCATS)
PINK1 expr mod – changes PINK1 expression; Potency, µM (titrated, usually from 76.6 µM), for inactives: at the top dose activation (PINK1 increase), actives largely listed as activators; AID 624263; 410,000 compounds, 0.2% hits; PINK1 immunofluorescence, high-content cytometry, 24 h; active = well fitted activation curve with a large enough effect; inconclusive = small, poorly fitted or top-dose-only effect; inactive = flat fitted curve, though single readings scatter; cell line not stated here;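 further: potency means the concentration at half of the fitted maximal effect; % of control where 0% means no effect; nearly all actives have a fitted effect of over 65% in size; a mitochondrial uncoupler was the plate control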
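Fluorescence from anti-PINK1 antibody, together with nuclear and cell stains, was scanned on a laser-scanning cytometer. Before staining, stable-line cells were incubated 24 hours with compounds at 5 concentrations; primary antibody 12 h at 10 degrees C.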
Six1-Eya2 blk – Six1/Eya2 interaction inhibition; Q15475+O00167; AlphaScreen GST-Six1/His-Eya2 binding, biochemical; active compounds read low; control for the full effect not named in the record; activity change, % (no concentration beside the values); 360,000 compounds, 0.56% hits; AID 651725; in the data active = activity change below about -65%; inconclusive = about -30% to -65%; inactive = above about -30%; further: on the % scale 0 is the no-effect control and ±100 the full control effect
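Homogeneous AlphaScreen proximity assay pairing GST-Six1 with His-tagged Eya2 (added as 5X mix: 250 nM and 500 nM) in 50 mM Tris pH 8.0, 300 mM NaCl, 1 mM TCEP. Glutathione donor and nickel acceptor beads; 1 h, 37 °C, dark.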
CtBP-E1A blk – inhibitors of CtBP/E1A interaction | AlphaScreen GST-E1A/His-CtBP binding, 1536-well; active compounds read low; control for the full effect not named in the record | activity change, % (concentration not given with the values) | 340,000 compounds, 0.49% hits; in the data active means activity change below about -65%; inconclusive means about -30% to -65%; inactive means above about -30%; further: on the % scale 0 is the no-effect control and ±100 the full control effect
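Protein mix (5X: 125 nM each GST-E1A, His-CtBP) was incubated with pinned compound 2 h at 37 deg C in dark, in 50 mM Tris pH 8.0 buffer with 300 mM NaCl. Glutathione donor and nickel acceptor beads followed; AlphaScreen signal read after 1 h.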
D2 ag – activates the human D2 dopamine receptor. AID 624465. P14416. activation, % (test concentration not listed). 360,000 compounds, 0.084% hits. DiscoveRx PathHunter D2 beta-arrestin, luminescence, 90 min; 100% = 57 uM dopamine signal; in the data active = activation above about 40%; inconclusive = about 15% to 40%; inactive = below about 15%; further: compound concentration not given in the record; the text of the record calls up to 30% inactive
Target sequence (P14416 whole entry, looked up): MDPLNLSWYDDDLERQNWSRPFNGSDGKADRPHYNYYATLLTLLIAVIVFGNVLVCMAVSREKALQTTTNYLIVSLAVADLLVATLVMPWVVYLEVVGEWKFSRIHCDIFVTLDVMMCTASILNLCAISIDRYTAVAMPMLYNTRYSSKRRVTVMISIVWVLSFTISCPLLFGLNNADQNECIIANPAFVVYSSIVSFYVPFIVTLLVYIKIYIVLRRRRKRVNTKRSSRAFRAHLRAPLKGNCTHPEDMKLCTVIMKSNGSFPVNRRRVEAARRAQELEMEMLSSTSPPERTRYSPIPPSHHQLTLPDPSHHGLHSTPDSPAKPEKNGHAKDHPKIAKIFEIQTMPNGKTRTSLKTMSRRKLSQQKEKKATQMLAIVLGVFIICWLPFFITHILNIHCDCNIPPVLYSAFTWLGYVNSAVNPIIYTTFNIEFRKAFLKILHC
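DiscoveRx PathHunter D2 beta-arrestin cells (2,100/well) attached overnight, then compound-stimulated 90 min at 37 C in HBSS/10 mM HEPES/0.1% Tween-20 buffer; beta-galactosidase complementation read by luminescence after 1 h at ambient temperature. Dopamine 57 uM final (EC100) as control.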
D2 PAM – positive allosteric modulators of human D2 dopamine receptor. P14416. DiscoveRx D2 beta-arrestin cells, luminescence, 90 min; 100% = 57 uM dopamine signal. potentiation, % (no concentration beside the values). 360,000 compounds, 0.23% hits; active = potentiation of 50% or more; inconclusive = 30% to 50%; inactive = 30% or less;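 further: compound concentration not given in the record; tested on top of an EC20 dose of dopamine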
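PathHunter D2 cells, attached overnight at 37 deg C, received compound in DMSO plus dopamine at EC20 (50 nM final) for 90 min at 37 deg C. Beta-arrestin recruitment was read as luminescence after 1 h with detection reagent at ambient temperature.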
Sfp inh – Sfp phosphopantetheinyl transferase inhibition | Biochemical Sfp PPTase activity, qHTS | Potency, µM, for the others: max response, negative = inhibition, actives largely listed as inhibitors | 310,000 compounds, 3.5% hits; active means well fitted inhibition curve with a large enough effect; inconclusive means small, poorly fitted or top-dose-only effect, or another doubt; inactive means no such curve, though single readings can be large or run the other way;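 further: the enzyme is Sfp with the accession as filed and its product quenches rhodamine fluorescence; potency means the concentration at half of the fitted maximal effect; 0% = enzyme reaction without inhibitor and -100% = no enzyme wells; top concentration of the series not given in the record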
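Fluorescence-quenching assay: 15 nM Sfp-PPTase preincubated 15 min at room temperature with compound, then 5 uM rhodamine-CoA and 12.5 uM BHQ-2-labelled YbbR peptide added. Fluorescence (ex 525/em 598 nm) read at start and after 30 min; difference gives rate.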
TRPV1 potentiator – enhances activation of the human vanilloid receptor TRPV1 | TRPV1-expressing cells, Fluo-8 calcium influx, capsaicin EC20 potentiation; host cell line not named in the record; control for the full effect not named in the record | potentiation, % at 8.33 µM | 320,000 compounds, 0.02% hits; active means potentiation above 80%; inconclusive means 30% to 80%; inactive means below 30%; further: 0% is about no effect
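Cells expressing TRPV1 were dye-loaded with Fluo-8 and read kinetically: 10 s baseline, 3 min after compound (agonist portion), then 2 min after EC20 capsaicin (allosteric enhancer portion). Calcium-bound dye fluorescence at 480/520 nm.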
Starred values were filed as active, the others as inactive; ? = inconclusive; nt = not tested or not shown; [ ] = another dose, or the depositor's remark. Compounds were not picked by outcome; about 3.7% have a hit in one of these screens.

SMILES	PINK1 expr mod	Six1-Eya2 blk	CtBP-E1A blk	D2 ag	D2 PAM	Sfp inh	TRPV1 potentiator
O=C(NC1(C(F)(F)F)N=C2SCCN2C1=O)c1ccco1 (stereo not given)	-1.4%	4.2	7.8	-3.3	-9.6	4.3%	0.9
Cc1cccc(NC(=O)CCN2C(=O)c3ccccc3C2=O)n1	-0.3%[38.3 µM]	-0.4	8.5	-2.2	3.1	-7.9%	15.5
COCCCNC(=O)c1ccccc1Oc1ccccc1	0.3%	1.0	-1.2	-3.9	3.3	30.6%[activator]	0.5
CN(C)c1ccc(C(C(=O)NCC2CCCO2)N(Cc2ccco2)C(=O)c2snc(C(N)=O)c2N)cc1 (stereo not given)	1.3%	-1.3	-2.0	8.5	5.6	11.5%	-1.2
CCc1ccc(C(=O)C(C)OC(=O)CNS(=O)(=O)c2ccc(C)cc2)cc1 (stereo not given)	0.4%	1.8	0.0	-2.7	-26.7	nt	10.8
COc1cc(OC)c(OC)cc1CN1CCN(Cc2ccc(C(F)(F)F)cc2)CC1	1.0%	-10.4	-11.8	1.7	-4.5	1.4%	23.5
COc1ccc(-c2cn3ccc(C)cc3n2)cc1	-0.2%	-3.1	nt	-6.0	-5.9	-2.4%	?
CCc1nnc(NS(=O)(=O)c2ccc(NC(=O)COc3ccc(Cl)c(C)c3)cc2)s1	2.2%	-1.2	1.1	2.2	1.9	20.5%	17.0
CC(c1ccco1)N(C(=O)Nc1ccccc1)C1CCCCC1 (stereo not given)	3.2%[38.3 µM]	-1.4	12.4	-2.0	-5.8	25.3%	-7.9
CCC(=O)Nc1ccc(C(=O)NNC(=O)COc2cccc(C)c2)cc1	2.2%	-4.7	4.1	-2.6	-7.4	-17.3%	-1.6
CCOC(=O)c1cc(C(=O)OCC)cc(-n2cc(O)c(C(=O)OCC)n2)c1	0.5%[38.3 µM]	-1.7	4.0	1.4	1.0	9.4%	?
COc1ccc(OCC#CCNC(C)(C)C)cc1	-1.0%	1.4	7.5	-3.2	-13.9	?	-6.1
O=C1c2ccccc2C(c2nnnn2-c2ccc3c(c2)OCCO3)N1Cc1ccco1 (stereo not given)	3.1%	4.0	4.3	nt	nt	nt	nt
CC(C)CNC(=S)NC1CC2CCC(C1)N2Cc1ccccc1 (stereo not given)	-6.2%[38.3 µM]	2.0	3.7	-0.7	-22.7	-4.4%	-10.1
CCCN(C(=O)COC(=O)CCC(=O)c1ccccc1)c1c(N)n(Cc2ccccc2)c(=O)[nH]c1=O	0.6%	9.5	9.0	-1.8	-12.4	nt	nt
CN(C)CCNC(=O)c1cc2c(s1)-c1ccccc1OC2	10.1%	6.4	13.9	3.0	-12.9	19.8%	-0.4
NS(=O)(=O)c1ccc(NC(=O)CSc2nc3c(c(=O)[nH]2)CCCC3)cc1	1.1%	-9.5	0.0	-2.6	-15.4	15.5%	16.3
CC(OC(=O)Cn1cnc2c1c(=O)n(C)c(=O)n2C)C(=O)NC(C)c1ccc(Cl)cc1Cl (stereo not given)	3.0%	-5.6	12.0	-3.0	-16.8	nt	8.3
ONC(=NCc1ccccc1)c1ccccc1	11.2%	0.4	16.0	-2.6	4.8	nt	nt
COc1cccc(NC(=O)CN2C(=O)NC(CCc3ccccc3)C2=O)c1 (stereo not given)	2.7%	-2.8	-0.5	-0.3	-2.2	nt	16.6

Full records as entered above. Order of values: PINK1 expr mod	Six1-Eya2 blk	CtBP-E1A blk	D2 ag	D2 PAM	Sfp inh	TRPV1 potentiator
`COc1ccc(OCC#CCNC(C)(C)C)cc1` is listed as -1.0%	1.4	7.5	-3.2	-13.9	?	-6.1
`O=C1c2ccccc2C(c2nnnn2-c2ccc3c(c2)OCCO3)N1Cc1ccco1` (stereo not given) is listed as 3.1%	4.0	4.3	nt	nt	nt	nt
`COc1cccc(NC(=O)CN2C(=O)NC(CCc3ccccc3)C2=O)c1` (stereo not given) is listed as 2.7%	-2.8	-0.5	-0.3	-2.2	nt	16.6

Continuation.
SMILES	PINK1 expr mod	Six1-Eya2 blk	CtBP-E1A blk	D2 ag	D2 PAM	Sfp inh	TRPV1 potentiator
COc1cc(-c2ccccc2)nc(N)n1	-5.2%[38.3 µM]	2.7	7.1	-2.8	8.9	1.6%	-0.6
CCOc1ccc2nc(NC(=O)CN3CCOCC3)sc2c1	0.5%	-5.4	-0.3	-4.9	-2.9	15.6%	-5.2
CCCCN(CCCNC(=O)C1CCN(S(=O)(=O)N2CCOCC2)CC1)c1ccccc1	-1.2%	-6.1	-2.4	0.7	5.3	-5.9%	-1.6
COc1ccc2cc(C(=O)/C=C/c3cc(OC)c(OC)c(OC)c3)ccc2c1	3.4%	-11.2	-0.6	-1.3	-2.8	-13.7%	-1.8
CC1CN(C(=O)CCn2c(=O)oc3ccccc32)CC(C)O1 (stereo not given)	0.2%	10.5	-0.1	0.4	2.6	28.9%	9.6
C[C@H]1CN([C@@H](C)CO)C(=O)CCCn2cc(nn2)CO[C@@H]1CN(C)S(C)(=O)=O	1.2%	39.7	-2.4	2.8	-8.9	nt	nt
Cn1c(C(=O)NCc2cccnc2)cc2sccc21	6.8%[38.3 µM]	1.5	1.7	-1.4	-9.0	-6.6%	-4.2
CCN(CCCNC(=O)C1CCN(S(=O)(=O)N2CCOCC2)CC1)c1cccc(C)c1	1.1%	0.0	2.5	-5.6	-15.3	18.0%	8.8
FC(F)(F)c1cc(-c2ccco2)nc(NCc2cccs2)n1	1.9%	8.3	16.6	0.3	-25.7	17.2%	-10.9
CCOc1ccc(CN2CCCC(CNC(=O)c3ccc(F)cc3)C2)cc1CO (stereo not given)	0.7%	-2.2	nt	-5.0	-15.8	11.6%	1.5

3 entries out of the list, ordered by formula weight, rising:
SMILES	PINK1 expr mod	Six1-Eya2 blk	CtBP-E1A blk	D2 ag	D2 PAM	Sfp inh	TRPV1 potentiator
O=C(NC1(C(F)(F)F)N=C2SCCN2C1=O)c1ccco1 (stereo not given)	-1.4%	4.2	7.8	-3.3	-9.6	4.3%	0.9
COc1cccc(NC(=O)CN2C(=O)NC(CCc3ccccc3)C2=O)c1 (stereo not given)	2.7%	-2.8	-0.5	-0.3	-2.2	nt	16.6
O=C1c2ccccc2C(c2nnnn2-c2ccc3c(c2)OCCO3)N1Cc1ccco1 (stereo not given)	3.1%	4.0	4.3	nt	nt	nt	nt

Following part
SMILES	PINK1 expr mod	Six1-Eya2 blk	CtBP-E1A blk	D2 ag	D2 PAM	Sfp inh	TRPV1 potentiator
CC(C)NC(=O)CC(=O)N/N=C/c1c(F)cccc1Cl	-0.2%	10.2	3.0	6.5	0.7	13.6%	4.9
CC(C)OCCCN1CC(=O)N2C(c3ccccc3)c3[nH]c4ccccc4c3C[C@H]2C1=O (stereo not given in full)	1.4%	4.2	-3.9	1.5	0.6	3.0%	2.8
CCOc1ccc(C(=O)NNC(=O)CN2C(=O)C3CC=CCC3C2=O)cc1OC (stereo not given)	0.1%	4.9	-11.8	-3.0	-13.9	nt	nt
Cc1oc(-c2cccc(F)c2)nc1CN1CCCCC1CCc1ccccn1 (stereo not given)	-1.1%	-10.8	-0.4	3.6	-6.9	19.8%	0.6
COc1ccc(NC(=O)CNc2ccccc2C(C)=O)cc1S(=O)(=O)N1CCOCC1	0.2%	-4.5	-1.6	-7.5	-5.5	nt	nt
Cc1cccnc1NC(=O)C1CCN(S(=O)(=O)c2ccc3ccccc3c2)CC1	0.7%	-10.1	-0.2	0.4	-6.7	nt	22.3
COCCOC(=O)c1[nH]c2c(c1C)C(=O)CC(c1cccs1)C2 (stereo not given)	9.3%	-0.5	nt	-2.8	-15.8	12.6%	-4.8
CC(C)C[C@H](N)c1cn([C@@H](CCCCN)C(=O)N2CCNCC2)nn1	-0.8%	-9.8	-24.4	-0.8	-5.5	5.2%	21.1
COc1ccc(N2CCN(c3cc(C)c4ccc(O)cc4n3)CC2)cc1	1.2%	-25.3	-3.6	-3.5	-1.5	11.0%	1.6
Cn1nc(C(F)(F)F)cc1-c1ccc(/C=C(\C#N)C(=O)c2cccc(C(F)(F)F)c2)s1	0.0%	7.1	-19.1	-5.5	-2.5	7.3%	5.6
Cc1ccc(OCC(O)CN2CC3(C)CC2CC(C)(C)C3)cc1 (stereo not given)	5.8%	-3.3	3.2	2.2	-7.3	-25.7%	-6.8
Cc1ccc(NC(=O)CN(C(=O)N2CCN(C)CC2)S(=O)(=O)c2ccc(C)cc2)cc1	4.2%	-2.3	7.3	2.7	0.7	nt	10.1
Cc1ccc(CNC(=O)CNC(=S)N(Cc2ccccc2)Cc2cccnc2)cc1	3.0%	-0.8	-0.2	2.0	-7.9	12.4%	15.5
O=C(CSc1ccc2c(c1)OCCO2)Nc1ccc(N2CCOCC2)cc1	3.0%	-1.8	16.4	-2.3	-3.2	8.5%	-4.4
CCOc1cc(C(=O)Nc2ccccc2N2CCN(S(C)(=O)=O)CC2)cc(OCC)c1OCC	-0.7%	3.9	-1.3	-5.7	-1.1	4.6%	-5.6
CC1Cc2ccccc2N1C(=O)CNCCCN(C)C (stereo not given)	1.9%	9.7	5.4	0.5	4.1	-21.6%	4.5
CC(C)(C)C(=O)c1cn(CC(=O)O)c2ccccc12	-2.1%	-6.9	-12.2	0.5	-4.0	0.8%	4.3
O=C(CSc1ccc(F)cc1)NCCSc1ccccc1	0.1%	9.2	nt	5.3	-7.2	2.8%	-2.7
O=C(CSc1n[nH]c(-c2ccccc2)n1)NC(=O)NCc1ccco1	-0.6%	-18.7	3.4	-4.3	-10.5	-8.3%	-12.2
O=C(COC(=O)CNC(=O)c1ccccc1F)NCCNC(=O)COC(=O)CNC(=O)c1ccccc1F	0.4%	1.1	4.7	-1.6	9.8	nt	-5.1
CC(C)CSCC1OC(n2cnc3c(N)nccc32)C(O)C1O (stereo not given)	1.0%	-0.1	-14.0	-3.8	-8.1	nt	nt
O=C(COC(=O)c1ccc(O)cc1)NC1CCCC1	1.4%	18.4	nt	-9.1	-1.3	3.5%	2.3
CCS(=O)(=O)N1CCCC(c2nc(-c3cccc(OC)c3)no2)C1 (stereo not given)	-3.5%[38.3 µM]	0.8	4.2	-1.4	-14.6	9.7%	-8.2
NS(=O)(=O)c1ccc(CCNC(=O)CNC(=O)c2ccc(Oc3ccccc3)cc2)cc1	10.8%	5.1	4.3	7.3	0.7	4.6%	-3.5
